HNF4A DNA FP: change in binding of human HNF4 alpha to DNA; P41235; HNF4a-FITC DNA binding, fluorescence polarization, 1 h; activity change, % at 10 µM; 360,000 tested, 0.3% active; in the data active = activity change above about 30%, passing the limit was not always enough;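 note: controls were the assay level and a saturating level of protein; the project sought stronger binding though the title names inhibitors; some compounds called inactive have numbers as strong as hits; positive values seem to mean higher polarization but the record does not say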
Target sequence (P41235 whole entry, looked up): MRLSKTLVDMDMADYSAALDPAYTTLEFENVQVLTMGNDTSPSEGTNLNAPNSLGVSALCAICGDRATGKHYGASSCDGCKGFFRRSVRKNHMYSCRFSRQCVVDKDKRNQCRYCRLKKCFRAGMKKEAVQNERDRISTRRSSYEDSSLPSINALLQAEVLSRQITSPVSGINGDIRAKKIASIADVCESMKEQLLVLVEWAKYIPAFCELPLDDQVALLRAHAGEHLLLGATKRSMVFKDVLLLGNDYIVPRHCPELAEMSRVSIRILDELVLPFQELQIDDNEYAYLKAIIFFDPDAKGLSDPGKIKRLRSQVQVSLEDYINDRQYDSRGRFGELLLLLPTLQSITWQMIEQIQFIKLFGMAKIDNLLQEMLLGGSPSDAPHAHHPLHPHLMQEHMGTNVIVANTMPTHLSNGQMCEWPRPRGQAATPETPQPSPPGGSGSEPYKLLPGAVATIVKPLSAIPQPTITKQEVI
Ecoli rRNA inh: inhibitors of bacterial rRNA selective over humanized ribosomes | E. coli WT GFP vs humanized-ribosome RFP mutants, fluorescence, 24 h; hits give low values; DMSO median 0, no signal -100 | 350,000 tested, 1.6% active | GFP signal change (wild-type ribosome), % (no concentration beside the values) | AID 720706;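 active = significant combined selectivity score with lowered wild-type GFP, culture density cut under 30%, mutant RFP and density less affected; inactive = any of these conditions unmet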; note: one replicate is shown; some compounds called inactive have numbers as strong as hits
Vif TR-FRET: HIV-1 Vif–A3G interaction blockers – biochemical, TR-FRET, GST-Vif 1-94, biotin-A3G peptide, dose response retest, primary screen (AID 1117319). TR-FRET GST-Vif / biotin-A3G peptide binding; higher % means a stronger effect; test concentration not given here; strong numbers were not always called active. inhibition, %, or IC50 in µM where a hit was titrated. 260,000 tested, 0.57% active;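 active = above the screen mean plus three standard deviations and confirmed in dose response; inconclusive = results disagree or hit not tested in dose response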;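 note: Vif residues 1-94 fused to GST binding biotinylated APOBEC3G peptide 110-148; 0% = full assay without inhibitor and 100% = GST in place of GST-Vif; retest series ran down from 100 µM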
AF4-AF9 inh: inhibitors of human MLL-AF4/AF9 interaction; 350,000 tested, 0.47% active; AlphaScreen, biotin-AF4 peptide binding to FLAG-AF9; AID 651704; inhibition, % at 10 µM;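 active = every replicate reaching a set inhibition limit, whatever the replicate mean, cut at about 25% in these data; inconclusive = mean inhibition reaches that limit but some replicates miss it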;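 note: 0% = plate neutral control median and 100% = total signal loss; the record names both 10 and 1 µM as test concentration; the first replicate is given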
ALR H2O2 inh: blocks human ALR sulfhydryl oxidase activity; P55789; purified ALR, DTT oxidation, H2O2 HRP-luminol luminescence; inhibition, % (no concentration beside the values); 290,000 tested, 3.8% active; AID 485317;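 active = mean and each replicate at 75% or more; inconclusive = only one of the two met; inactive = neither met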;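 note: stock transfer was 7.5 nL into about 7.5 µL; 0% = neutral wells and 100% = wells with inactivated enzyme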
Target sequence (P55789 whole entry, looked up): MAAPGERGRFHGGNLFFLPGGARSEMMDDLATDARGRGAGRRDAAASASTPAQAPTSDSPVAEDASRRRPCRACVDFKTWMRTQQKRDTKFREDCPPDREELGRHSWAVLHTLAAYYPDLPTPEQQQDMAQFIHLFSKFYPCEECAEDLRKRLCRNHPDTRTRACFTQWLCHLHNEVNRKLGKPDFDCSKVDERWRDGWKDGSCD
Ecoli growth: inhibitors of Escherichia coli growth. OD600, 23 h; hits give low values. OD600 absorbance (test concentration not listed). AID 1053175. 330,000 tested, 0.21% active;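 active = OD600 absorbance below the run mean of sample wells minus 3.6 SD, in any replicate, cut at about 0.56 in these data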;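 note: stock transfer was 300 nL into about 60 µL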
FGF22 binding: FGF22 (human) thermal shift binding. recombinant FGF22 thermal shift, SYPRO orange fluorescence; percent of sucrose octasulfate shift, DMSO zero. calls only at 9.99 µM. 340,000 tested, 1.5% active;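 active = melting point raised past a set limit in the mean and every replicate; inconclusive = no clear call; three in four hits are not shown here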
Target sequence (Q9HCT0 whole entry, looked up): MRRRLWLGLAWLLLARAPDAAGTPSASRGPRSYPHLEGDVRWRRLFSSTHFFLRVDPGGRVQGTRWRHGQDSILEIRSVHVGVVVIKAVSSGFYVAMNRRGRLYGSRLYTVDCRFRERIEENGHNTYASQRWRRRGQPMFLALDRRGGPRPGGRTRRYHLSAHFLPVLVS
Ecoli rRNA inh OD600: recorded beside Ecoli rRNA inh, whose call it bears; OD600 change, %; measured here: OD600 growth;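 optical density of the mix in the first replicate; 0 = DMSO median and -100 = no signal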
Ecoli rRNA inh RFP: further read-out of Ecoli rRNA inh, marked with its call; RFP signal change, %; measured here: RFP humanized mutant strains;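 first replicate; 0 = DMSO median and -100 = no signal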
* hit, by the source's call; i = inactive; ? = inconclusive; / = no result given; & = joins results of further samples. A portion of the library; count on the stated rates, not on these rows.

SMILES	HNF4A DNA FP	Ecoli rRNA inh	Ecoli rRNA inh OD600	Ecoli rRNA inh RFP	Vif TR-FRET	AF4-AF9 inh	ALR H2O2 inh	Ecoli growth	FGF22 binding
CC(=O)Nc1cccc(C(=O)NC2CCCc3c2cnn3-c2cc(C)cc(C)c2)c1 (stereo not drawn)	1.2	-6	-27	7.7	/	0.2	9	0.7	i
Cc1oc2c(CN3CCOCC3)c(O)ccc2c(=O)c1-c1ccc(Br)cc1	0.8	-16	-25	-9.6	-1%	/	0	0.75	/
Cn1c(=O)c2c(n(C)c1=O)n(C)c(=O)n2C	5.6	/	/	/	/	-0.6	/	/	i
C[C@@H]1CN([C@@H](C)CO)C(=O)c2cc(NS(=O)(=O)c3cn(C)cn3)ccc2O[C@@H](C)CCCCO[C@H]1CN(C)S(=O)(=O)c1cn(C)cn1	/	2	6	-0.7	/	-9.0	/	/	i
Cc1ccc(CN(C)C(=O)c2c(C)nn(-c3ccccc3)c2C)cc1	-2.8	4	0	2.0	/	-0.3	/	0.67	i
Cc1ccc(S(=O)(=O)Nc2cccc(Oc3cnccn3)c2)cc1	-1.7	3	-16	0.1	-5%	-14	-7	0.68	i
NC(=O)CC[C@@H]1NC(=O)[C@H](CO)NC(=O)c2cc([N+](=O)[O-])cc(I)c2NCC[C@@H](C(N)=O)NC1=O	-0.6	/	/	/	25%	0.0	/	/	i
CC1CN(C(=S)Nc2cccc(Cl)c2Cl)CC(C)O1 (stereo not drawn)	4.9	6	-2	-0.8	-5%	-1.3	-7	0.74	i
Cc1ccccc1CN1CCC(CNC(=O)Nc2ccc(F)cc2F)CC1	2.1	-1	2	-1.4	-5%	1.8	0	0.68	i
COc1ccccc1NS(=O)(=O)c1cc(C(=O)NCc2ccco2)ccc1C	3.3	/	/	/	4%	/	-10	0.75	/
CCCCOc1ccc(N2CC(C(=O)NCCc3ccc(OC)c(OC)c3)CC2=O)cc1 (stereo not drawn)	-0.2	-4	-5	0.3	3%	-2.1	-5	0.66	i
Clc1ccc(-c2nc(-c3cc4cc(Cl)ccc4o3)cs2)cc1	2.2	7	-12	0.0	-8%	2.0	-7	0.65	i
N#Cc1c(N)c(C(=O)c2ccccc2)n2c1CCCC2	-1.7	-3	-1	-5.7	3%	6.8	5	0.71	i
Cc1cc(Cl)ccc1OCC(=O)NC1CCCC1	0.0	-3	-6	0.9	12%	-54	-2	0.67	i
CS(=O)(=O)N1CCC(C(=O)Nc2ccc3c(c2)OCCO3)CC1	-2.3	/	/	/	2%	/	2	0.65	/
Cc1ccccc1C(=O)NNC(=O)Cc1ccccc1	2.8	/	/	/	-3%	/	0	0.67	/
O=C(COc1cccnc1[N+](=O)[O-])NCc1ccco1	-0.1	9	15	1.5	4%	-1.6	-10	0.72	i
O=c1c2ccccc2nc(SCc2cn3ccsc3n2)n1-c1ccccc1F	-1.2	/	/	/	4%	/	37	0.69	/
CCS(=O)(=O)N1CCC(C(=O)NCCCN2CCC(Cc3ccccc3)CC2)CC1	4.4	/	/	/	?	/	-5	0.71	/
CCCS(=O)(=O)Nc1ccc(Nc2c3ccccc3nc3ccccc23)c(OC)c1	3.0	-33	-71	-7.8	8%	15	/	/	i
C[C@@H]1CN([C@H](C)CO)C(=O)c2cc(NC(=O)Nc3ccccc3)ccc2O[C@@H](C)CCCCO[C@H]1CN(C)C(=O)c1ccccc1	/	-2	0	0.2	/	1.3	/	/	i
Cc1nn(CC(O)COc2ccc3c(c2)CCC3)c(C)c1C (stereo not drawn)	-0.3	/	/	/	-3%	/	0	0.73	/
CC(=O)CCc1ccc(OCC(O)CNC2CCCc3ccccc32)cc1 (stereo not drawn)	-0.7	-2	-11	-3.7	-4%	-0.1	/	0.63	i
CCCN1C(=O)C(Cc2nc3ccccc3c(=O)n2-c2ccccc2)c2ccccc21 (stereo not drawn)	1.1	/	/	/	/	/	0	0.72	/
Cc1cccc(/C=N/NC(=O)CNc2cccc3ccccc23)n1	0.0	/	/	/	3%	/	0	/	/
CCn1cc(S(=O)(=O)Nc2nc3ccc(OC)cc3s2)cn1	0.5	1	5	-2.0	-3%	-1.7	11	0.68	i
COC(=O)c1cc(S(=O)(=O)NCC2CCN(Cc3cc(C)ccc3C)CC2)cn1C	-1.6	3	2	3.7	/	-0.4	2	0.71	i
C[C@H]1CN([C@@H](C)CO)C(=O)c2cc(NC(=O)CCCCCC(=O)Nc3ccccc3N)ccc2O[C@H]1CN(C)S(=O)(=O)c1ccccc1	/	-1	4	-1.9	/	-3.7	/	/	i
COc1cc2c(cc1OC)C(C)N(CCc1ccc(Cl)cc1)CC2 (stereo not drawn)	2.1	1	2	6.4	/	5.2	-5	0.65	i
Cc1ccc(S(=O)(=O)N2CCN(c3ccccc3)CC2)s1	-2.0	-2	-5	0.2	/	1.3	16	0.72	i
O=C(NCCOc1ccccc1)C1=CC=CN2CCS(=O)(=O)N=C12	3.6	3	5	-1.0	-8%	-0.2	0	0.65	i
O=C(CCN1CCCCC1)N[C@@H]1CC[C@@H](CCNC(=O)c2cc(Cl)cc(Cl)c2)O[C@H]1CO	/	-3	-7	1.8	/	0.0	/	/	i
CCc1ccc2c(c1)NC(=O)C2(C)Cc1ccc(Cl)cc1 (stereo not drawn)	2.0	-60	-79	-19	/	-0.8	/	/	i
CC(=O)N1c2ccc(S(=O)(=O)N3CCC(C(=O)N4CC(C)CC(C)C4)CC3)cc2CC1C (stereo not drawn)	2.9	1	8	0.5	/	-2.5	-4	0.61	i
CCC(=O)N1CC2(C1)[C@@H](c1ccccc1)[C@@H](CO)N2C(=O)c1cccnc1	/	4	4	-1.9	/	-0.3	/	/	i
O=C(NCc1cccc(C(F)(F)F)c1)c1cccc(S(=O)(=O)N2CCN(Cc3ccccc3)CC2)c1	4.1	-7	-7	-2.6	/	-2.3	-4	0.73	i
COCCn1nnnc1C(c1cc2cc(C)ccc2[nH]c1=O)N1CCN(C2CCCCC2)CC1 (stereo not drawn)	5.2	1	-5	-3.6	?	6.5	/	0.73	i
NC(=O)c1ccc(Nc2nnc(-c3ccc(O)cc3)c3ccccc23)cc1	1.9	-23*	-3.1*	-5.4*	20%	-1.7	96*	0.69	i
O=C(O)C1CCCNC1 (stereo not drawn)	0.1	/	/	/	?	/	2	/	/
O=C(c1ccc(S(=O)(=O)NCC2CCCO2)cc1)N1CCN(c2ccccc2F)CC1 (stereo not drawn)	0.4	3	-4	-2.4	31%	0.3	4	0.68	i
CCOCCCNC(=O)C(NC(=O)c1ccc2c(c1)OCO2)c1ccccc1 (stereo not drawn)	0.5	-1	4	-0.9	/	-0.6	/	0.71	i
COc1ccc(NC(=O)COc2cccc3c2CCN(C)C3=O)c(OC)c1	-3.1	-1	2	-0.8	/	0.5	0	0.69	i
CC(=O)NC(=S)Nc1ccc(NC(=S)NC(=O)/C=C/c2ccco2)cc1	7.0	-12	14	-2.4	/	-0.1	/	0.71	i
O=c1c2ccccc2nnn1Cc1ccccc1	-2.9	-6	4	10	16%	7.9	-4	0.65	i
Cc1c(C(c2cc3c(cc2Br)OCO3)c2c(C)n(C)n(-c3ccccc3)c2=O)c(=O)n(-c2ccccc2)n1C	-2.9	8	-1	-0.9	-3%	1.0	-3	0.65	i

Part of the list above in order of number of heavy atoms, low to high:
SMILES	HNF4A DNA FP	Ecoli rRNA inh	Ecoli rRNA inh OD600	Ecoli rRNA inh RFP	Vif TR-FRET	AF4-AF9 inh	ALR H2O2 inh	Ecoli growth	FGF22 binding
O=C(O)C1CCCNC1 (stereo not drawn)	0.1	/	/	/	?	/	2	/	/
O=c1c2ccccc2nnn1Cc1ccccc1	-2.9	-6	4	10	16%	7.9	-4	0.65	i
CCOCCCNC(=O)C(NC(=O)c1ccc2c(c1)OCO2)c1ccccc1 (stereo not drawn)	0.5	-1	4	-0.9	/	-0.6	/	0.71	i

(continued)
SMILES	HNF4A DNA FP	Ecoli rRNA inh	Ecoli rRNA inh OD600	Ecoli rRNA inh RFP	Vif TR-FRET	AF4-AF9 inh	ALR H2O2 inh	Ecoli growth	FGF22 binding
O=C(CNC(=O)c1ccc(Cl)cc1Cl)OCc1cn2cc(Br)ccc2n1	0.8	0	3	5.4	-15%	-1.9	-2	0.71	i
COC(=O)C1=C(C)N(Cc2ccccc2)C(=NCCc2c[nH]c3ccccc23)N[C@H]1c1cccc(F)c1	4.4	-52	-80	-21	/	14	-4	/	i
COc1cccc(C(=O)NC(=S)N2CCN(c3ccc(C(F)(F)F)cc3[N+](=O)[O-])CC2)c1	-2.0	4	7	-5.3	13%	-3.7	2	0.7	i
CCOC(=O)c1c(-c2ccc(-c3ccccc3)cc2)csc1NC(=O)C1C2CCC(O2)C1C(=O)O (stereo not drawn)	4.1	/	/	/	-2%	/	96*	0.75	/
COc1ccc(S(=O)(=O)Nc2ccc3c(c2)C(=O)N([C@H](C)CO)C[C@@H](C)[C@H](CN(C)S(=O)(=O)c2ccccc2)O3)cc1	/	-3	-1	0.0	/	0.4	/	/	i
C[C@H](CO)N1C[C@H](C)[C@H](CN(C)C(=O)Nc2ccc3c(c2)OCO3)Oc2ccc(NC(=O)c3ccncc3)cc2CC1=O	/	2	16	0.0	/	0.0	/	/	i
C=CCn1c(SCC(=O)NCC2CCCO2)nc2scc(-c3ccco3)c2c1=O (stereo not drawn)	3.4	/	/	/	26%&-2%	/	9	0.67	/
COc1ccc(S(=O)(=O)NN=C2CCCCC2)cc1	-1.1	/	/	/	-6%	/	?	0.7	/
Cc1ccc(S(=O)(=O)N(C)c2ccc(OCC(=O)Nc3cccc(-n4cnnn4)c3C)cc2)cc1	1.1	-7	-9	10	?	-41	-12	0.64	i
O=C1C(C2=NC(c3ccccn3)C3C(=O)N(c4ccc(OC(F)(F)F)cc4)C(=O)C23)=C(O)c2ccccc21 (stereo not drawn)	-2.8	7	3	-2.2	-7%	-1.8	-7	0.72	i
Cc1ccc(-c2cnc3c(c2)C(=O)N([C@H](C)CO)C[C@H](C)[C@H](CN(C)C(=O)c2ccc(F)cc2)O3)cc1	/	-1	1	1.3	/	-3.5	/	/	i
Cc1ccc2sc(NNC(=O)c3ccc4c(c3)OCCO4)nc2c1C	6.8	-7	-14	7.5	12%	-13	/	0.78	i
Cc1ccc(S(=O)(=O)N(C)C[C@H]2Oc3ncc(C#CCC(C)C)cc3C(=O)N([C@@H](C)CO)C[C@H]2C)cc1	/	-2	-23	2.8	/	0.0	/	/	i
Cc1ccc(NC(=O)C2CCN(S(C)(=O)=O)CC2)cc1	-5.3	/	/	/	0%	/	-11	0.65	/
COC(=O)[C@@H]1C[C@@H](c2ccccc2)[C@H](C)C1(C)C	-0.4	7	2	-0.6	/	-1.0	-8	/	i
CC(C)(C)c1cc(-c2ccccc2)no1	0.9	8	8	2.4	5%	-2.5	3	0.67	i

With a hit mark in ALR H2O2 inh, of those listed so far:
SMILES	HNF4A DNA FP	Ecoli rRNA inh	Ecoli rRNA inh OD600	Ecoli rRNA inh RFP	Vif TR-FRET	AF4-AF9 inh	ALR H2O2 inh	Ecoli growth	FGF22 binding
NC(=O)c1ccc(Nc2nnc(-c3ccc(O)cc3)c3ccccc23)cc1	1.9	-23*	-3.1*	-5.4*	20%	-1.7	96*	0.69	i
CCOC(=O)c1c(-c2ccc(-c3ccccc3)cc2)csc1NC(=O)C1C2CCC(O2)C1C(=O)O (stereo not drawn)	4.1	/	/	/	-2%	/	96*	0.75	/
